Yeast UUG start – alters start codon recognition fidelity in yeast; S. cerevisiae UUG-firefly luciferase reporter, luminescence/redox ratio; activity score, % at 18.7 µM; actives 0.13% (n = 350,000);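 active means replicate mean at a twofold rise or more, about +100% in these data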;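 further: firefly luciferase made from a UUG start codon reports start codon fidelity; reporter light over untreated wells divided by growth signal over untreated wells; some hits fall short of that in this replicate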
An asterisk follows results filed as active.

Sample of the layout:
SMILES	Yeast UUG start
O=C(c1cccnc1)N1C[C@@H]2[C@H](c3ccccc31)[C@@H](CO)N2C(=O)CN1CCOCC1	-5
CCNC(=O)C[C@H]1CC[C@@H]2[C@H](COC[C@H](O)CN2C(=O)C2CCCC2)O1	18

This part in full, previewed entries included:
SMILES	Yeast UUG start
O=C(c1cccnc1)N1C[C@@H]2[C@H](c3ccccc31)[C@@H](CO)N2C(=O)CN1CCOCC1	-5
CCNC(=O)C[C@H]1CC[C@@H]2[C@H](COC[C@H](O)CN2C(=O)C2CCCC2)O1	18
COc1ccc(-c2ccc3c(c2)[C@@H]2[C@@H](CCN2S(=O)(=O)c2ccccc2F)[C@@H](CO)N3)cc1	-16
Cc1ccc(S(=O)(=O)Nc2cccc3c2O[C@@H](CN(C)CC2CCCCC2)[C@@H](C)CN([C@@H](C)CO)C3=O)cc1	1
Cc1ccccc1-c1ccc([C@H]2[C@H]3CN(C(=O)Nc4ccc(F)cc4)CCCCN3[C@H]2CO)cc1	23
CN1C(=O)c2cc(NC(=O)c3cccs3)ccc2OC[C@H]2O[C@@H](CC(=O)O)CC[C@H]21	4
O=C(Nc1ccc(F)cc1)N1CCCCN2[C@H](C1)[C@H](c1ccc(C#Cc3ccccc3)cc1)[C@@H]2CO	0
O=C(NCc1ccc(F)cc1)[C@@H]1[C@@H](CO)[C@@H]2Cn3c(cccc3=O)[C@H]1N2CC1CC1	-12
Cc1ccccc1S(=O)(=O)N(C)C[C@H]1OCc2ccccc2-c2c(n(C)c3ccccc23)C(=O)N([C@H](C)CO)C[C@H]1C	1
N#Cc1ccc(-c2ccc([C@@H]3[C@H](CO)N4CCCCN(S(=O)(=O)c5ccccc5)C[C@@H]34)cc2)cc1	0
CC(C)NC(=O)N1CC[C@H]2[C@@H]1c1cc(Br)ccc1N(C)[C@H]2CO	-2
COc1cccc(-c2ccc3c(c2)[C@H]2[C@H](CCN2C(=O)c2cccc(F)c2)[C@@H](CO)N3)c1	25
O=C(C[C@@H]1CC[C@H]2[C@@H](COC[C@@H](O)CN2C(=O)Nc2ccc(Cl)cc2)O1)NCc1ccncn1	-6
CO[C@@H]1CN(C)C(=O)c2cc(NC(=O)C3CC3)ccc2OC[C@@H](C)N(C(=O)C2CCCCC2)C[C@H]1C	1
OC[C@@H]1[C@@H](c2ccc(-c3ccccc3F)cc2)[C@@H]2CN(Cc3cccnc3)CCCCN12	-16
COc1ccc(S(=O)(=O)Nc2ccc3c(c2)CC(=O)N([C@@H](C)CO)C[C@@H](C)[C@H](CN(C)Cc2ccncc2)O3)cc1	-7
O=S(=O)(Cc1ccccc1)N1CCCCN2[C@H](C1)[C@H](c1ccc(C#Cc3ccccc3)cc1)[C@@H]2CO	-4
O=C(C[C@H]1CC[C@@H]2[C@H](COC[C@H](O)CN2Cc2ccc(F)cc2)O1)NCCc1ccccc1	-1
O=S(=O)(c1ccccc1)N1CCCCN2[C@H](CO)[C@@H](c3ccc(C#Cc4cccnc4)cc3)[C@H]2C1	5
CCC(=O)N1C[C@H](C)[C@@H](OC)CN(C)C(=O)c2ccc(NC(=O)Nc3ccccc3)cc2OC[C@H]1C	21
CN(C)CC(=O)N1CCCCN2[C@H](CO)[C@H](c3ccc(-c4ccccc4)cc3)[C@@H]2C1	-2
CC(C)NC(=O)Nc1cccc2c1O[C@@H](CN(C)C(=O)Nc1ccc(F)cc1)[C@@H](C)CN([C@H](C)CO)C2=O	-5
CN(C)CC#Cc1ccc([C@H]2[C@H]3CN(C(=O)Nc4ccc(F)cc4)CCCCN3[C@H]2CO)cc1	17
COc1ccc(NC(=O)Nc2ccc3c(c2)CC(=O)N([C@@H](C)CO)C[C@H](C)[C@H](CN(C)C)O3)cc1	10
CN(C)C(=O)c1ccc(-c2ccc3c(c2)[C@@H]2[C@@H](CCN2C(=O)Cc2ccccn2)[C@@H](CO)N3C)cc1	17
COc1cccc(NC(=O)N2[C@H](CO)[C@H](c3ccccc3)[C@@H]2CNC(C)C)c1	-7
C[C@H]1CN([C@@H](C)CO)C(=O)c2cccc(NC(=O)C3CCCCC3)c2O[C@@H]1CN(C)Cc1ccncc1	-13
COc1cccc(C(=O)Nc2ccc3c(c2)C(=O)N(C)C[C@H](OC)[C@H](C)CN(C(=O)C2CCCC2)[C@@H](C)CO3)c1	7
COCCNC(=O)C[C@@H]1CC[C@@H]2[C@H](COC[C@@H](O)CN2S(=O)(=O)c2ccccc2C)O1	23
CO[C@@H]1CN(C)C(=O)c2cc(NS(C)(=O)=O)ccc2OC[C@@H](C)N(C(=O)C2CCCCC2)C[C@@H]1C	-4
CN(C)C(=O)c1cccc(-c2ccc3c(c2)[C@@H]2[C@@H](CCN2C(=O)Cc2ccccc2)[C@H](CO)N3)c1	-7
Cc1noc(C)c1S(=O)(=O)Nc1ccc2c(c1)C(=O)N([C@@H](C)CO)C[C@H](C)[C@@H](CN(C)C)O2	-6
COc1ccc(NC(=O)N(C)C[C@@H]2Oc3ccc(NC(=O)Nc4ccc5c(c4)OCO5)cc3C(=O)N([C@@H](C)CO)C[C@H]2C)cc1	9
CCC(=O)N1CCCCN2[C@H](CO)[C@@H](c3ccc(C#CCOC)cc3)[C@@H]2C1	42
CCNC(=O)[C@@H]1[C@@H](CO)[C@@H]2Cn3c(ccc(-c4ccccc4)c3=O)[C@@H]2N1C(=O)C1CC1	-6
C[C@H]1CN([C@@H](C)CO)C(=O)c2cc(NC(=O)Nc3cccc4ccccc34)ccc2O[C@@H]1CN(C)S(C)(=O)=O	24
C[C@H](CO)N1C[C@H](C)[C@@H](CN(C)Cc2ccncc2)Oc2ccc(NS(=O)(=O)c3cccs3)cc2C1=O	-8
CN1C(=O)c2cc(NC(=O)c3cnccn3)ccc2OC[C@@H]2O[C@H](CC(=O)N[C@H]3CCN(Cc4ccccc4)C3)CC[C@@H]21	-4
CN1CCN(C(=O)C[C@H]2CC[C@@H]3[C@H](COC[C@@H](O)CN3C(=O)Nc3ccc(Cl)cc3)O2)CC1	1
OC[C@H]1[C@@H](c2ccc(C#Cc3ccccc3)cc2)[C@@H]2CN(Cc3cncnc3)CCCCN12	3
COc1cccc(CN2[C@@H]3CN(C(=O)c4ccncc4)c4ccccc4[C@@H]3[C@@H]2CO)c1	2
CCCNC(=O)[C@@H]1[C@@H](CO)[C@@H]2Cn3c(cccc3=O)[C@@H]2N1C(=O)C1CCCC1	8
COCC(=O)NC[C@H]1[C@H](c2ccc(C3=CCCC3)cc2)[C@H](CO)N1C(=O)C1CC1	-5
O=C(C1CCOCC1)N1C[C@@H]2[C@H](c3ccccc31)[C@H](CO)N2C(=O)c1ccccc1	9
O=C(Nc1ccccc1)[C@@H]1[C@@H](CO)[C@@H]2Cn3c(cccc3=O)[C@@H]2N1CC1CC1	16

A draw from above in order of formula weight, ascending:
SMILES	Yeast UUG start
CCC(=O)N1CCCCN2[C@H](CO)[C@@H](c3ccc(C#CCOC)cc3)[C@@H]2C1	42
COCC(=O)NC[C@H]1[C@H](c2ccc(C3=CCCC3)cc2)[C@H](CO)N1C(=O)C1CC1	-5
CN1CCN(C(=O)C[C@H]2CC[C@@H]3[C@H](COC[C@@H](O)CN3C(=O)Nc3ccc(Cl)cc3)O2)CC1	1
C[C@H]1CN([C@@H](C)CO)C(=O)c2cc(NC(=O)Nc3cccc4ccccc34)ccc2O[C@@H]1CN(C)S(C)(=O)=O	24

Remaining list, next part:
SMILES	Yeast UUG start
COc1ccccc1NC(=O)N(C)C[C@H]1OCc2ccccc2-c2c(n(C)c3ccccc23)C(=O)N([C@H](C)CO)C[C@@H]1C	0
O=C(C1CCC1)N1C[C@@H]2[C@H](c3ccccc31)[C@H](CO)N2S(=O)(=O)c1ccccc1	49
C[C@@H]1CN([C@H](C)CO)C(=O)c2cc(NC(=O)CCC(F)(F)F)ccc2O[C@@H]1CN(C)C	-9
COc1ccc(-c2ccc3c(c2)[C@@H]2[C@@H](CCN2C(=O)c2ccc(F)cc2)[C@H](CO)N3C)cc1	-6
CCCNC(=O)N1C[C@H](C)[C@@H](OC)CN(C)C(=O)c2cc(NC(C)=O)ccc2OC[C@@H]1C	-4
C[C@H](CO)N1C[C@H](C)[C@H](CN(C)CC2CCCCC2)Oc2ccc(NC(=O)Nc3ccccc3)cc2C1=O	8
C[C@@H](O)C#Cc1ccc([C@H]2[C@H]3CN(CC4CCOCC4)CCCCN3[C@H]2CO)cc1	0
CO[C@@H]1CN(C)C(=O)c2cc(NS(=O)(=O)c3ccccc3)ccc2OC[C@@H](C)N(Cc2nccs2)C[C@@H]1C	-1
C[C@H](CO)N1C[C@H](C)[C@@H](CN(C)Cc2ccccc2)Oc2ccc(NC(=O)C3CC3)cc2C1=O	-4
C[C@H](CO)N1C[C@H](C)[C@@H](CN(C)Cc2ccc(-c3ccccc3)cc2)Oc2ccc(NC(=O)Cn3cnnn3)cc2CC1=O	9
CCCNC(=O)Nc1ccc2c(c1)OC[C@@H](C)N(C(=O)C1CCC1)C[C@H](C)[C@H](OC)CN(C)C2=O	14
C[C@@H]1CN([C@H](C)CO)C(=O)c2cccc(NC(=O)Nc3ccc(C(F)(F)F)cc3)c2O[C@@H]1CN(C)Cc1ccc(-c2ccccc2)cc1	-8
COc1ccc(C(=O)N2C[C@@H]3[C@H](c4ccccc42)[C@H](CO)N3Cc2ccccc2Cl)cc1	28
COc1ccccc1NC(=O)N1C[C@@H]2[C@H](c3ccccc31)[C@@H](CO)N2C(C)=O	7
O=C(Nc1ccc(F)cc1)N1CCCCN2[C@H](CO)[C@@H](c3ccc(C4=CCCCC4)cc3)[C@H]2C1	3

In a second layout: entries from further up.
SMILES,Yeast UUG start
CN1C(=O)c2cc(NC(=O)c3cccs3)ccc2OC[C@H]2O[C@@H](CC(=O)O)CC[C@H]21,4
O=C(C1CCC1)N1C[C@@H]2[C@H](c3ccccc31)[C@H](CO)N2S(=O)(=O)c1ccccc1,49
N#Cc1ccc(-c2ccc([C@@H]3[C@H](CO)N4CCCCN(S(=O)(=O)c5ccccc5)C[C@@H]34)cc2)cc1,0

Remaining list, next part
SMILES	Yeast UUG start
COCC(=O)N1C[C@H](C)[C@H](OC)CN(C)C(=O)c2ccc(NC(=O)c3ccccc3)cc2OC[C@H]1C	17
C[C@H]1CN([C@@H](C)CO)C(=O)c2cc(NC(=O)Cc3cn(C)c4ccccc34)ccc2O[C@H]1CN(C)C(=O)Nc1cccc2ccccc12	-2
CCC(=O)N1[C@H](CO)[C@@H]2c3ccccc3N(C(=O)NC(C)C)C[C@@H]21	-12
C/C=C/c1ccc([C@H]2[C@H](CO)N[C@@H]2CN(CC)C(=O)c2cccnc2)cc1	22
O=C(C[C@H]1CC[C@@H]2[C@H](COC[C@H](O)CN2S(=O)(=O)c2ccccc2Cl)O1)NCc1ccccc1Cl	15
Cc1noc(C)c1NC(=O)Nc1ccc2c(c1)C(=O)N([C@@H](C)CO)C[C@H](C)[C@@H](CN(C)C)O2	21
CO[C@@H]1CN(C)C(=O)c2ccc(NC(C)=O)cc2OC[C@@H](C)N(Cc2cc(F)ccc2F)C[C@@H]1C	5
CO[C@@H]1CN(C)C(=O)c2ccc(NS(=O)(=O)c3cn(C)cn3)cc2OC[C@@H](C)N(CC2CC2)C[C@H]1C	-4
O=S(=O)(c1ccccc1F)N1CCCCN2[C@H](CO)[C@@H](c3ccc(-c4cncnc4)cc3)[C@H]2C1	-11
COc1cccc(-c2ccc([C@@H]3[C@H](CO)N4CCCCN(S(=O)(=O)c5cccs5)C[C@@H]34)cc2)c1	-12
C[C@H](CO)N1C[C@H](C)[C@H](CN(C)C(=O)Nc2ccc(C(F)(F)F)cc2)Oc2c(NC(=O)c3ccc(-c4nccs4)cc3)cccc2C1=O	-10
Cn1cnc(S(=O)(=O)N2CCCCN3[C@H](C2)[C@H](c2ccc(C#CC4CC4)cc2)[C@@H]3CO)c1	4
COc1cccc(C(=O)N2C[C@@H]3[C@H](c4ccccc42)[C@H](CO)N3C(=O)NC(C)C)c1	-5
CO[C@@H]1CN(C)C(=O)c2cc(NC(=O)C3CCC3)ccc2OC[C@H](C)NC[C@H]1C	-14
O=C(C[C@H]1CC[C@H]2[C@@H](COC[C@@H](O)CN2Cc2nccs2)O1)NCc1ccccc1F	7
CO[C@@H]1CN(C)C(=O)c2ccc(NS(C)(=O)=O)cc2OC[C@H](C)N(C(=O)C2CCCC2)C[C@@H]1C	12
O=C(C1CC1)N1C[C@H]2[C@@H](c3ccccc31)[C@H](CO)N2C(=O)c1ccccc1	1
C[C@H](CO)N1C[C@H](C)[C@H](CN(C)Cc2ccc(C(=O)O)cc2)Oc2ccc(NC(=O)Cn3cnnn3)cc2C1=O	-4
COCC(=O)N1C[C@@H]2[C@H](c3ccccc31)[C@H](CO)N2Cc1ccc(OC)cc1	8
C[C@H](CO)N1C[C@H](C)[C@@H](CN(C)Cc2ccc(C(F)(F)F)cc2)Oc2c(NC(=O)C3CCOCC3)cccc2C1=O	3
C[C@@H]1CN([C@H](C)CO)C(=O)c2cccc(NC(=O)C3CCCCC3)c2O[C@@H]1CN(C)Cc1ccc(Cl)c(Cl)c1	-5
COCCNC(=O)C[C@H]1CC[C@H]2[C@@H](COc3ccc(NC(=O)CC(F)(F)F)cc3C(=O)N2C)O1	-12
CCCNC(=O)Nc1ccc2c(c1)OC[C@H](C)N(C(=O)C1CC1)C[C@@H](C)[C@H](OC)CN(C)C2=O	-2
CC(C)(O)C#Cc1ccc([C@@H]2[C@H]3CN(Cc4ccccc4F)CCCCN3[C@H]2CO)cc1	10
CN(C)CCCNC(=O)C[C@@H]1CC[C@H]2[C@@H](COc3ccc(NC(=O)C4CCC4)cc3C(=O)N2C)O1	-2
CC(C)NC(=O)N(C)C[C@@H]1Oc2c(NC(=O)c3ccncc3)cccc2C(=O)N([C@@H](C)CO)C[C@H]1C	-13
C/C=C/c1ccc([C@H]2[C@H](CO)N(C(C)=O)[C@H]2CNC(=O)CC2CC2)cc1	-4
C[C@@H](O)C#Cc1ccc([C@H]2[C@@H](CO)N3CCCCN(CC4CC4)C[C@H]23)cc1	14

High-throughput results as filed in PubChem.

A portion of the library; rates above refer to the full screens.
